Screening results deposited in PubChem BioAssay by several laboratories.
Beta apoptosis = blocks beta cell apoptosis | INS-1E cytokine-induced death, ATP luminescence, 48 h; percent of positive-control rescue, neutral wells zero | protection from apoptosis, % (no concentration beside the values) | 0.8% of 300,000 active | AID 435005;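 active = all replicates at 75% or more, or half of them and the mean; inconclusive = half reach 75% but not the mean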;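 note: 0% = cytokine-treated negative control wells and 100% = positive control rescue; higher means more ATP so stronger rescue from cytokine killing; wells of about 40 µL received 100 nL stock; the first replicate is given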
rRNA inh HTS = inhibitors of bacterial rRNA selective over humanized ribosomes; 1.6% of 350,000 active; E. coli WT GFP vs humanized-ribosome RFP mutants, fluorescence, 24 h; stronger effect = lower value; DMSO median 0, no signal -100; GFP signal change (wild-type ribosome), % (test concentration not listed);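 active = significant combined selectivity score with lowered wild-type GFP, culture density cut under 30%, mutant RFP and density less affected; inactive = any of these conditions unmet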; note: one replicate is shown; some compounds called inactive have numbers as strong as hits
T cruzi inh = T. cruzi replication inhibition | T. cruzi beta-gal in NIH3T3, luminescence, 90 h | inhibition, % (test concentration not listed) | 1.4% of 300,000 active;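 active = mean inhibition across valid replicates above about 55%, limit read from the data; inconclusive = mean below that limit but half or more replicates reach it; inactive = mean below it, under half of replicates reach it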;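 note: signal also drops with host cell toxicity which is not excluded here; 0% = plate median of DMSO wells and 100% = zero luminescence signal; higher percent means less beta-gal luminescence so fewer parasites; stock transfer was 50 nL into about 50 µL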
MLL AF4-AF9 inh = MLL-AF4/AF9 protein interaction inhibition; 0.47% of 350,000 active; AID 651704; AlphaScreen, biotin-AF4 peptide binding to FLAG-AF9; inhibition, % at 10 µM;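 active = every replicate reaching a set inhibition limit, whatever the replicate mean, cut at about 25% in these data; inconclusive = mean inhibition reaches that limit but some replicates miss it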;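 note: 0% = plate neutral control median and 100% = total signal loss; the record names both 10 and 1 µM as test concentration; the first replicate is given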
Target sequence (P42568 whole entry, looked up): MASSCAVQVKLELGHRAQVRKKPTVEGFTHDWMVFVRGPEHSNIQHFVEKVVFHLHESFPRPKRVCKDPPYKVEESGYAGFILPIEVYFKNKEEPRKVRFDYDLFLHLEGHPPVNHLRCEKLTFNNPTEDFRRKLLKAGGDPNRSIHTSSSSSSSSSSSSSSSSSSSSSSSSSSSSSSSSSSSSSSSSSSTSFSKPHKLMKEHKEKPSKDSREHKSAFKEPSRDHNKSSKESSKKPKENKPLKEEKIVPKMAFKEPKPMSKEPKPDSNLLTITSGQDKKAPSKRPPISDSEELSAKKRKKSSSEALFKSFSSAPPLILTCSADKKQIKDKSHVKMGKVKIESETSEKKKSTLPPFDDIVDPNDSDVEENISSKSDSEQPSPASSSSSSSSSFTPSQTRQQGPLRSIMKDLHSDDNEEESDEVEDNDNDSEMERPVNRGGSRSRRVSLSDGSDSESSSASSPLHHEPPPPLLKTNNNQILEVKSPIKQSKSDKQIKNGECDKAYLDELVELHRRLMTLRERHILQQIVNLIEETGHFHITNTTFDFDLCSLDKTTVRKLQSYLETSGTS
UCH37 DUB inh = blocks the human deubiquitinase UCH37 | Q9Y5K5 | purified proteasome/UCH37, Ub-AMC cleavage fluorescence | inhibition, % (no concentration beside the values) | 0.33% of 330,000 active | AID 588478;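 active = mean of two replicates above 20%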;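 note: 0% = compound-free wells with enzyme and 100% = wells lacking proteasome; stock transfer was 100 nL into about 20 µL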
Target sequence (Q9Y5K5 whole entry, looked up): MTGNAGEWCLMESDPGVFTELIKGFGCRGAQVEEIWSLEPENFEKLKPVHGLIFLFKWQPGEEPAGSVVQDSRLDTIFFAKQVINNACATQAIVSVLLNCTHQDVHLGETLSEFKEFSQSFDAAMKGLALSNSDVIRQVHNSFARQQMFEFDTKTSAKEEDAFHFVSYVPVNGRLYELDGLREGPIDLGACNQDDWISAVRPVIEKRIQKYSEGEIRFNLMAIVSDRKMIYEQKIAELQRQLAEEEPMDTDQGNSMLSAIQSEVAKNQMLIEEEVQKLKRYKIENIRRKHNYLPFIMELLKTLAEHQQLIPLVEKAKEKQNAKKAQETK
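Reagent: Ub-AMC substrate; assay system: Proteasome-associated human UCH37 deubiquitinase; controls: no-proteasome and no-compound wells; read-out: % inhibition of Ub-AMC cleavage fluorescence; timing: 30 min preincubation with enzyme, 25 min cleavage at room temperature; signal: AMC fluorescence from Ub-AMC cleavage, excitation 355 nm, emission 460 nm; buffer or medium: Tris-HCl pH 7.4 plus ovalbumin, ATP-MgCl2, DTT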
FGF22 binding = shifts melting point of recombinant human FGF22 | Q9HCT0 | recombinant FGF22 thermal shift, SYPRO orange fluorescence; percent of sucrose octasulfate shift, DMSO zero | calls only at 9.99 µM | 1.5% of 340,000 active;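 active = melting point raised past a set limit in the mean and every replicate; inconclusive = no clear call; three in four hits are not shown here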
Target sequence (Q9HCT0 whole entry, looked up): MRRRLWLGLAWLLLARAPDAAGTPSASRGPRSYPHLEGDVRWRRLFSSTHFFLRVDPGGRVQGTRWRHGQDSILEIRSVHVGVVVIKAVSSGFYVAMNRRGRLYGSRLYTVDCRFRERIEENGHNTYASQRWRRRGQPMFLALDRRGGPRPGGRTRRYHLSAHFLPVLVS
Bfl-1 A1 inh = inhibitors of the anti-apoptotic protein A1, read as caspase activation. MEF A1-2A-BIM cells, Caspase-Glo 3/7 luminescence, 3 h; percent of clofoctol response, vehicle zero. caspase activation, % (concentration not given with the values). 0.066% of 330,000 active. AID 2462;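 active = over half of replicate activation scores above 10%, or exactly half above 10 with the replicate mean above 10; inconclusive = replicate mean below 10 yet half the replicates above 10; inactive = over half of replicates below 10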;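 note: wells of about 30 µL received 50 nL stock; many hits fall short of the cut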
Ecoli growth = blocks Escherichia coli growth; 0.21% of 330,000 active; OD600 absorbance (no concentration beside the values); AID 1053175; OD600, 23 h; stronger effect = lower value;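 active = OD600 absorbance below the run mean of sample wells minus 3.6 SD, in any replicate, cut at about 0.56 in these data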;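 note: stock transfer was 300 nL into about 60 µL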
rRNA inh HTS OD600 = further read-out of rRNA inh HTS, marked with its call; OD600 change, %; measured here: OD600 growth;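 optical density of the mix in the first replicate; 0 = DMSO median and -100 = no signal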
rRNA inh HTS RFP = second read-out of rRNA inh HTS, no call of its own (marks repeat the call); RFP signal change, %; measured here: RFP humanized mutant strains;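 first replicate; 0 = DMSO median and -100 = no signal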
Numbers without * were called inactive; i = inactive; ? = inconclusive; . = no result given; + = active, no number. These rows are one share of the data; count on the stated rates, not on these rows.

SMILES	Beta apoptosis	rRNA inh HTS	rRNA inh HTS OD600	rRNA inh HTS RFP	T cruzi inh	MLL AF4-AF9 inh	UCH37 DUB inh	FGF22 binding	Bfl-1 A1 inh	Ecoli growth
Cc1ccc(NC(=O)c2nc[nH]c2C(=O)N[C@@H](CCCCNC(=O)OC(C)(C)C)C(=O)OC(C)(C)C)cc1	22	10	4	5.0	41	3.4	-0.6	i	-0.4	.
COc1ccc(NC(=O)c2cc(S(=O)(=O)N3CCOCC3)ccc2C)cc1S(=O)(=O)N1CCCCC1	.	-4	0	-2.4	.	?	3.2	i	.	0.68
COc1ccc(S(=O)(=O)N2CCOCC2)cc1NC(=O)COc1ncnc2ccccc12	-22	.	.	.	-11	.	2.4	.	0.1	0.69
Cc1cc(C)n(-c2ccc(C(F)(F)F)cc2[N+](=O)[O-])n1	-5	13	19	-2.2	-15	-5.6	0.4	.	-0.3	0.66
COc1cc(C(=O)NN(CCC#N)C2=NS(=O)(=O)c3ccccc32)cc(OC)c1OC	-1	10	6	2.2	-7	1.2	0.6	i	0.8	0.68
O=S(=O)(c1cccc(-c2n[nH]c(=S)n2C2CCCC2)c1)N1CCOCC1	6	0	6	7.0	2	-5.5	-1.1	i	0.3	0.68
CC(=O)NC(=S)Nc1ccc2oc(-c3cc(F)c(F)cc3Cl)nc2c1	6	12	10	1.2	19	-2.2	-0.8	i	0.2	0.65
CCN(C1CCCCC1)S(=O)(=O)c1ccc(S(=O)(=O)N2CCN(CCC#N)CC2)cc1	2	-5	-13	0.4	3	-0.1	1.4	.	-0.5	0.72
COc1ccc(C(=O)COC(=O)c2n[nH]c3ccccc23)c(OC)c1	.	-18	-43	-2.5	.	-33	0.4	i	.	0.67
C[n+]1ccccc1/C=C/c1c(F)cccc1F	-4	11	6	0.6	2	2.7	7.9	i	1.6	0.69
COc1ccc(C)cc1NC(=O)NCc1ccco1	6	4	-1	-0.1	-3	0.9	-0.2	i	0.7	0.62
O=C(C1=C[C@@H](c2csc3ccccc23)C[C@@H](OCCCCO)O1)N1CCN(Cc2ccc3c(c2)OCO3)CC1	6	-9	-22	4.6	25	?	4.2	i	-0.2	.
C/C(=N\Nc1nc2ccccc2c(=O)n1O)c1ccco1	-2	0	9	1.0	-12	-2.2	.	.	-1.2	.
Cc1ccc(S(=O)(=O)N2CCC(=O)CC2c2ccccc2)cc1 (centres undefined)	.	-11	-15	-2.4	.	-1.2	0.4	i	.	0.67
CN(Cc1nc2ccccc2c(=O)[nH]1)C(=O)c1cc(C2CC2)nn1-c1ccccc1	15	-6	-26	2.1	.	2.5	-1.5	i	-1.5	0.68
O=C(NCCNc1ccccc1[N+](=O)[O-])c1ccccc1F	0	-9	8	-6.3	8	0.5	7.9	i	-2.5	0.7
Cc1cccc2sc(NC(=O)CSc3nc4ccccc4o3)nc12	-10	.	.	.	-8	.	-0.7	.	-0.7	0.74
COc1ccccc1CN1CCNC(=O)C1CC(=O)NCc1cn(C)nc1C (centres undefined)	-3	16	10	3.6	-7	-0.9	0.4	i	0.2	0.72
Cc1[nH]c2ccccc2c1N=Nc1cc(C(=O)O)cc(C(=O)O)c1	1	-5	1	-4.2	-13	1.0	18	+	1.1	0.69
COC(=O)c1cccc(OCC(O)Cn2ccnc2)c1 (centres undefined)	-3	.	.	.	-4	.	-4.3	.	0.5	0.73
COCCNC(=O)c1cc(C)ccc1C	-7	5	-5	1.2	2	-3.3	0.9	i	0.7	0.72
O=C(c1csc2c1CCCC2)N1CCN(c2ccc(F)cc2)CC1	-26	.	.	.	-5	.	3.0	.	0.2	0.64
CCCSc1nnc(NC(=O)Nc2ccccc2OC)s1	2	-2	1	2.2	11	0.6	1.8	i	-0.9	0.69
COC(=O)c1ccc(NC(=O)COc2ccc(N(C)S(=O)(=O)c3ccc(C)cc3)cc2)cc1	4	5	19	-3.9	.	4.8	3.7	i	-0.1	0.7
O=C(NNC(=O)c1ccccc1[N+](=O)[O-])c1cccs1	-1	12	12	1.6	-1	-1.7	-2.4	i	-0.1	0.64

With a hit mark in FGF22 binding, of those listed so far:
structure,rRNA inh HTS,rRNA inh HTS OD600,rRNA inh HTS RFP,MLL AF4-AF9 inh,UCH37 DUB inh,FGF22 binding,Ecoli growth
Cc1[nH]c2ccccc2c1N=Nc1cc(C(=O)O)cc(C(=O)O)c1,-5,1,-4.2,1.0,18,+,0.69

New compounds follow
SMILES	Beta apoptosis	rRNA inh HTS	rRNA inh HTS OD600	rRNA inh HTS RFP	T cruzi inh	MLL AF4-AF9 inh	UCH37 DUB inh	FGF22 binding	Bfl-1 A1 inh	Ecoli growth
COc1ccc(N(CC(=O)NC2CCCC2)C(=O)c2ccc(C)s2)c(OC)c1	-4	-16	-8	7.3	5	1.8	3.6	i	0.1	0.71
CCCn1c(N)c(N(CCOC)C(=O)c2ccc(Cl)c([N+](=O)[O-])c2)c(=O)[nH]c1=O	3	3	13	-2.4	8	-1.5	5.7	i	0.0	0.67
CN(C)CCCN1C(=O)c2cccc3c([N+](=O)[O-])ccc(c23)C1=O	-1	.	.	.	.	.	-27	.	-0.6	0.58
COc1cc(/C=C(\C#N)C(=O)Nc2ccc(SC(F)F)cc2)cc(OC)c1OC	-12	.	.	.	-7	.	-1.1	.	-0.5	0.67
CCC(C)NC(=O)[C@H](CSCc1ccccc1)N1Cc2ccccc2C1=O (some centres undefined)	7	-12	-15	-6.6	6	5.5	5.2	i	0.9	0.75
COCCNC(=S)c1ccc(OC)cc1	3	.	.	.	.	.	-1.4	.	0.0	0.74
Cc1ccc(N=c2c([N+](=O)[O-])nn(-c3ccc(Cl)cc3)n2O)cc1C	-4	13	9	3.7	59*	.	4.4	i	-1.1	0.68
Cc1ccc(C(=O)Nc2nc(COc3ccccc3)cs2)s1	-1	.	.	.	-27	.	2.3	.	0.1	0.68
COc1ccc(C(=O)N/N=C(/C)c2cccc(NC(=O)c3ccccc3F)c2)cc1	7	4	10	3.8	-3	-1.0	.	i	0.2	.
COc1ccc(C2=NN(C(=O)CSc3nc(=O)n4cccc(C)c4n3)C(c3ccc(C)cc3)C2)cc1 (centres undefined)	.	4	9	0.2	44	-1.3	-21	i	-0.1	0.7
Cc1nnc(N(Cc2ccco2)C(=O)c2ccc(C#N)cc2)s1	-5	.	.	.	-3	.	6.5	.	-0.3	0.72
Cc1ccc(CSc2nnc(-c3cnccn3)n2C)cc1	7	4	9	-0.4	-10	-0.7	3.5	i	-0.3	0.7
COc1cc(NC(=O)c2cc3ccccc3o2)ccc1NC(=O)c1ccco1	-1	7	2	-0.4	4	-2.2	-230	i	-0.4	0.69
CN1CCC(N(C)C(=O)COc2ccccc2Cl)CC1	-2	11	9	-0.5	.	2.4	3.4	i	-0.2	0.68
[O-]/C(=C(\C(=S)Nc1cccc2ccccc12)[n+]1ccccc1)c1ccc(OC(F)F)cc1	.	-1	-19	5.3	.	13	6.7	i	.	0.67
CCCSc1nnc(NC(=O)Cc2ccc(OC)c(OC)c2)s1	-1	3	3	-1.0	-12	-3.8	3.1	i	-0.7	0.73
Cc1ccc(S(=O)(=O)NN2C(=O)c3ccccc3NC2c2ccccc2F)cc1 (centres undefined)	0	6	12	-0.5	-19	-0.1	-208	i	0.4	0.66
CC(C)(C)NC(=O)c1c(F)c(F)c(F)c(F)c1F	.	.	.	.	-4	.	3.2	.	1.1	0.73
COc1ccc(N(C(=O)c2snc(C(N)=O)c2N)C(C(=O)NC2CCCC2)c2cc(OC)ccc2OC)cc1 (centres undefined)	5	5	-4	5.0	15	-9.3	-22	i	0.2	0.65
c1c2c(cc3sc(N4CCCCC4)nc13)OCCO2	13	.	.	.	-3	.	3.3	.	-0.2	0.7
CCN1C(=NCCCCO)N[C@@H](c2cccc(F)c2)C(C(=O)OC)=C1C	-5	10	8	-0.6	-3	-7.1	-3.2	i	0.6	0.75
O=C(COC(=O)/C=C/c1ccc(C(F)(F)F)cc1)NC(=O)NCc1ccco1	-8	9	13	-0.2	.	1.0	-0.8	i	1.0	0.69
N#Cc1ccc(-c2csc(NNC(=O)c3ccc(Br)cc3)n2)cc1	78*	.	.	.	.	.	2.7	.	-0.3	0.74
Cc1cc(C(=O)COc2ccccc2Cl)c(C)n1-c1ccc2c(c1)OCO2	10	-1	-8	-13	-13	-0.7	3.2	i	-1.3	0.69
COC(=O)CSc1nc2cc(OC)ccc2cc1C#N	4	.	.	.	-6	.	-24	.	-0.7	0.74

(continued)
SMILES	Beta apoptosis	rRNA inh HTS	rRNA inh HTS OD600	rRNA inh HTS RFP	T cruzi inh	MLL AF4-AF9 inh	UCH37 DUB inh	FGF22 binding	Bfl-1 A1 inh	Ecoli growth
COC(=O)c1ccc(-n2c(CCC(=O)O)ccc2-c2ccccc2)cc1	.	.	.	.	-10	.	5.0	.	0.2	0.66
O=C(O)/C=C/C(=O)Nc1ccc(Oc2ccccc2)cc1	-13	4	1	0.5	1	0.1	3.8	i	0.2	0.66
O=C(Cn1cc([N+](=O)[O-])cn1)NCc1ccco1	-2	-56	-80	-30	-2	-1.6	2.2	i	1.1	0.68
O=[N+]([O-])c1ccccc1-c1ccc(C(=S)N2CCN(c3ccccc3)CC2)o1	-5	-19	-8	10	5	-1.8	5.7	i	-0.1	0.68
Cc1ccc(NC2(C#N)C(=O)Nc3ccccc32)cc1C (centres undefined)	-4	9	14	9.3	-17	2.5	1.3	i	0.2	0.71
CC1CC(C)CN(S(=O)(=O)N2CCCC(C(=O)NC(C)c3ccccc3)C2)C1 (centres undefined)	4	3	10	1.5	5	-15	-2.0	i	0.0	0.71
COc1ccc2c(CC(=O)O)cc(=O)oc2c1	-1	7	6	0.7	-7	-1.2	-76	i	0.0	0.68
O=C(NNC(=O)C12CC3CC(CC(O)(C3)C1)C2)c1ccccc1O	.	0	1	-0.1	-7	-1.6	-27	i	1.0	0.7
COC(=O)C1=C(C(=O)OC)[C@@H]2N(C)c3ccccc3[C@@]23C[C@@H](C(=O)OC)N(C(=O)c2cc(C)oc2C)C3=N1	-3	.	.	.	-5	.	2.2	.	0.0	.
O=C(c1ccco1)N1CCCC(N2CCN(c3ccccc3F)CC2)C1 (centres undefined)	2	9	4	-1.8	-6	-6.0	4.8	i	0.5	0.69
CCN(Cc1ccccc1)C(c1cccc(C#N)c1)c1nnnn1C(C)(C)C (centres undefined)	-7	-6	-13	-4.2	16	0.5	-0.4	i	-0.1	0.68
COc1cccc(N2CCN(C(=O)Nc3ccccc3Cl)CC2)c1	-2	11	13	-1.4	-1	-5.1	8.5	i	0.1	0.67
CCOC(=O)N1CCN(C(=O)c2ccc(N3C(=O)CCC3=O)cc2)CC1	-7	.	.	.	-8	.	-0.1	.	2.2	0.62
CC1CN(c2ccccc2)NC1=O (centres undefined)	-21	3	4	-3.0	2	-1.9	4.8	i	0.2	0.7
CCc1ccc(O)c(-c2cc(C(=O)Nc3cccnc3)[nH]n2)c1	9	-37*	-9.2*	1.0*	-11	-3.0	4.0	i	0.1	0.68
